VDR inhibitor: Inhibitors of the vitamin D receptor (VDR): qHTS; Potency, µM, without a hit: max response, negative = inhibition, hits mostly inhibitors; 0.93% of 400,000 active; AID 504847, 2011; VDR-SRC2-3 peptide fluorescence polarization, 2 h; active = well fitted inhibition curve with a large enough effect; inconclusive = small, poorly fitted or top-dose-only effect, or another doubt; inactive = no such curve, though single readings can be large or run the other way; also: series mostly up to about 120 µM
Target sequence (P11473 whole entry, looked up): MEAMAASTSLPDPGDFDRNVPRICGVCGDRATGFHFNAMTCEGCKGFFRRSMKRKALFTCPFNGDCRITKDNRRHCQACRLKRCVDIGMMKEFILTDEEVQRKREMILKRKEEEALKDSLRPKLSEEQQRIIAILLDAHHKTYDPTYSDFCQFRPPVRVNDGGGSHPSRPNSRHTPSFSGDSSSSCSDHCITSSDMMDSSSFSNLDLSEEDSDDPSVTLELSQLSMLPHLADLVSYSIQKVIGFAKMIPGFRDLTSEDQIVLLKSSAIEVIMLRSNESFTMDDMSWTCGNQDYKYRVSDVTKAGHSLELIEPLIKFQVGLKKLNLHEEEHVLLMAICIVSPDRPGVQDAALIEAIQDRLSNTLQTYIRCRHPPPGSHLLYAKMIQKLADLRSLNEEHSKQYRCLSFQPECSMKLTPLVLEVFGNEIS
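Signal is fluorescence polarization, reporting how far test compounds block the interaction of VDR with the SRC2-3 coregulator peptide after a 2 h room-temperature incubation.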
Numbers without * were called inactive; ? = inconclusive; & = joins results of further samples. % is scaled to controls: 0 for no effect and ±100 for the full control effect; potency is read from the fitted curve at half-maximal effect. Some of the compounds tested (hit frequency here may not be typical).

SMILES	VDR inhibitor
CCC(CC)c1nnc(NC(=O)CC(C)c2ccccc2)s1 (centres undefined)	-0.8%
CCOc1ccc(CNC(=S)N/N=C\c2ccc([N+](=O)[O-])cc2)cc1	-7.9%
COc1ccc(-n2c(=O)c(CCc3ccccc3)nc3cnc(N4CCNCC4)nc32)cc1	-14.3%
CCCCCCSc1ccc([C@@H]2[C@H]3C(=O)N(CC)C(=O)[C@H]3[C@]3(C(=O)OC)CCCN23)cc1	-17.0%
Cc1ccc(NC(=O)c2ccc(CN3CC(=O)N4CCCCC4C3=O)cc2)cc1 (centres undefined)	27.6%
CN(c1ccccc1)S(=O)(=O)c1cccc(C(=O)OCC(=O)NCc2ccccc2)c1	-11.9%
COCCC(=O)N1CCC(Oc2ccc(C(=O)NCCn3cccn3)cc2)CC1	-2.4%
O=C(CCn1c(=S)[nH]c2ccccc2c1=O)NCCCN1CCOCC1	-2.0%
CC1CCN(c2ccc(-c3cccs3)nn2)CC1	-13.5%
O=C(NNC(=S)NCc1ccccc1)c1cccnc1	-3.2%
CN(C(=O)C=Cc1ccccc1)c1ccccc1	-10.4%
CC[C@]1(C(=O)OC)[C@H]2C(=O)N(Cc3ccccc3)C(=O)[C@H]2[C@H]2CN=C(SCc3ccc(Cl)cc3)N21	-2.2%
CC1CC=CC2C1C(=O)N(Cc1ccccc1)C2c1cccc([N+](=O)[O-])c1 (centres undefined)	-12.6%
COc1ccc(OCCCC(=O)NCCc2ccc(OC)c(OC)c2)cc1	13.6%
CCOc1c2ccc(C(=O)NCc3ccccc3OC)cc2nn1CC	-9.4%
CC(=O)Nc1ccc(S(=O)(=O)N2CCN(c3cc(C(F)(F)F)ccn3)CC2)cc1	-1.9%
C/C=C/c1ccc(OCC(=O)N2CCc3cc(OC)c(OC)cc3C2)c(OC)c1	-11.3%
O=C(CSc1ncnc2sccc12)NCc1ccc2c(c1)OCO2	-11.0%
CC1(C)CC(=O)c2c(oc3ccc(NS(=O)(=O)c4ccc(C(=O)O)cc4)cc23)C1	-6.7%
O=C(O)c1cccc(N2C(=O)C3CC=CCC3C2=O)c1 (centres undefined)	9.8%
COc1ccccc1CNC(=O)C1CCN(S(=O)(=O)c2ccc3c(c2)OCCO3)CC1	12.2%
COc1cc(OC)cc(C(=O)N2CCC(C(=O)Nc3ccc4c(c3)OCCO4)CC2)c1	-16.4%
O=C(CCCN=C1NS(=O)(=O)c2ccccc21)OCC(=O)c1ccc(F)cc1	2.5%
COc1ccc(/C=C/c2n[nH]c(=O)c(C#N)c2C)cc1	5.3%
CCOC(=O)CNC(=O)CSc1ncnc2c1cnn2-c1ccccc1	-10.3%
(next part)
SMILES	VDR inhibitor
Oc1ccc(/C=N/n2c(-c3ccccc3)n[nH]c2=S)cc1	-3.3%
CC(=O)Nc1cc(NC(C)=O)cc(C(=O)OCC(=O)N2CC(C)OC(C)C2)c1 (centres undefined)	19.1%
COc1ccccc1N1CCN(C(=O)c2cc(-c3ccc(Cl)c(Cl)c3)on2)CC1	1.8%
O=C(c1cccc(Br)c1)N1CCN(c2ccccn2)CC1	-4.5%
Cc1cc(F)c(F)c(C(=O)N2CCCCC2C)c1Cl (centres undefined)	-7.9%
CCn1cc(Cl)c(C(=O)NNC(=O)CCn2nc(C)c([N+](=O)[O-])c2C)n1	-5.0%
CC1CCCCC1NS(=O)(=O)c1ccc(S(=O)(=O)N2CCN(CCC#N)CC2)cc1 (centres undefined)	4.9%
N#CCCN(CCC#N)C(=O)COc1ccc(Cl)cc1Cl	6.9%
Cc1cccc(-n2nnc(C(=O)Nc3ccc(F)cc3)c2N)c1	-3.9%
COCCn1c(N)c(N(Cc2ccccc2)C(=O)CSCC(=O)Nc2ccc(OC)cc2)c(=O)[nH]c1=O	-8.4%
COc1ccc(C(=O)CSc2nnc(CNC(=O)c3ccc(OC)c(OC)c3)n2C)cc1	-10.4%
Cc1onc(-c2ccccc2)c1C(=O)NNC(=S)NC(=O)c1ccc2c(c1)OCO2	-11.7%
CCN1CNC(=S)N(c2cccc(C)c2)C1	-27.9%
COc1ccc2c(c1)c1c(c(=O)n(-c3cccc(C)c3)c(=O)n1CC(=O)NCCC1=CCCCC1)n2C	-10.3%
O=C1OC(/C(=C\Nc2ccc(F)cc2F)[N+](=O)[O-])c2ccccc21 (centres undefined)	-12.1%
CCOc1ccc(S(=O)(=O)N(C)CC(=O)NC2CC2)cc1	-8.2%
CCN(C(=O)CC(C)C)c1nnc(Cn2nnc3ccccc32)s1	3.5%
O=C(COC(=O)C1CCN(c2ccc(C(F)(F)F)cn2)CC1)Nc1ccc(F)cc1[N+](=O)[O-]	-1.3%
C[C@H]1[C@@H](O)[C@@H](C)\C=C/C=C\C=C/C=C\C=C/C=C\C=C/[C@@H](O[C@H]2O[C@@H](C)[C@@H](O)[C@@H](N)[C@@H]2O)C[C@@H]2O[C@](O)(C[C@@H](O)C[C@@H](O)[C@@H](O)CC[C@@H](O)C[C@@H](O)CC(=O)O[C@H]1C)C[C@@H](O)[C@H]2C(=O)O (stereo in doubt)	-11.1%
CCOc1ccccc1C(=O)NN1C(=O)C2CCCCC2C1=O (centres undefined)	-10.1%
C/C(N)=C(\C#N)C(=O)NCCc1ccccn1	5.1%
O=C(Nc1cccnc1Cl)c1cc(-c2ccco2)on1	1.3%
COC(=O)CSc1nnc(-c2ccc(OC)c(OC)c2)o1	8.1%
Cc1ccc(C(=O)n2nc(-c3ccccc3)nc2NCc2ccco2)cc1	1.6%
Cc1ccc(C(=O)NCCn2c(N)c(C#N)c3nc4ccccc4nc32)cc1	-8.2%
Following part:
SMILES	VDR inhibitor
Cc1c(NS(=O)(=O)c2cccc(C(=O)Nc3ccccc3)c2)c(=O)n(-c2ccccc2)n1C	17.7%
C=CCn1c(SCC(=O)Nc2cc(C)c(Cl)cc2OC)nnc1-c1ccco1	0.5%
O=S(=O)(NCCc1ccccc1)c1ccc(F)cc1	-10.5%
COc1cccc(NS(=O)(=O)c2ccc3c(c2)CCN3C(C)=O)c1	-8.7%
CCN(CC)S(=O)(=O)c1ccc(Cl)c(NC(=O)c2cc(Cl)cc(Cl)c2)c1	-2.8%
O=C1c2oc3ccc(F)cc3c(=O)c2C(c2cccc([N+](=O)[O-])c2)N1CCCN1CCOCC1 (centres undefined)	17.7%
CCC(CC)C(=O)c1c[nH]c(C(=O)NCCCN2CCOCC2)c1	-2.9%
COc1ccccc1NC(=O)c1nn(-c2ccc(F)c(F)c2)ccc1=O	-4.0%
CC(=O)N[C@@H](Cc1ccc(O)cc1)C(=O)N[C@H](C(=O)N[C@@H](C)C(=O)N[C@H](C=O)CC(=O)O)C(C)C	-0.9%
C=CCNC(=O)c1onc(CSc2cccc(Cl)c2)c1C(=O)O	-14.1%
CCOC(=O)c1c(NC(=O)c2cc(-c3ccc(OC)c(OC)c3)on2)sc(C)c1C	-7.6%
C=CCn1c(=O)c2c3c(sc2n2c(Nc4ccc(C(=O)OCC)cc4)nnc12)CCCC3	19.8%
CCOc1ccc(NCCC#N)cc1	20.9%
COC(=O)c1sccc1NC(=O)Nc1ccc(Cl)c(Cl)c1	-7.3%
CN(C)c1ccc(/C=N/NC(=O)CCCO)cc1	2.1%
CC(C)COP(=O)(c1ccc(N(C)C)cc1)C(O)c1ccncc1 (centres undefined)	19.7%
CCC(Sc1ccc2nnc(-c3cccnc3)n2n1)C(=O)OC (centres undefined)	-22.2%&27.1%
CC(C)(C)C(=O)/C(C#N)=C/c1ccc(O)cc1	-10.8%
CCOc1ccccc1NC(=O)NNC(=O)COc1cccc(C)c1C	-12.5%
CCCn1c(N)c(C(=O)CN(C)CC(=O)Nc2c(C)cc(C)cc2C)c(=O)[nH]c1=O	-10.6%
O=C1C=C(NCC2CCCO2)CC(c2ccccc2)C1 (centres undefined)	-3.1%
CCOc1ccc2[nH]c3c(=O)n(CCc4ccc(OC)cc4)cnc3c2c1	-12.2%
Cc1cc(Oc2ccc(=O)n(C)n2)nc(Oc2ccc(=O)[nH]n2)n1	11.6%
Cc1nn(CCC(=O)Nc2cccc(C#N)c2)c(C)c1S(=O)(=O)N1CCCCC1	-7.5%&0.0%
C/C(Cc1ccccc1)=N\NC(=O)CNC(=O)c1ccccc1F	24.9%

A section taken from the entries so far, for reference:
SMILES	VDR inhibitor
Cc1c(NS(=O)(=O)c2cccc(C(=O)Nc3ccccc3)c2)c(=O)n(-c2ccccc2)n1C	17.7%
C=CCn1c(SCC(=O)Nc2cc(C)c(Cl)cc2OC)nnc1-c1ccco1	0.5%

Rewritten field by field: 4 of the compounds above.
Molecule: O=C(COC(=O)C1CCN(c2ccc(C(F)(F)F)cn2)CC1)Nc1ccc(F)cc1[N+](=O)[O-]
  VDR inhibitor: -1.3%

Molecule: C[C@H]1[C@@H](O)[C@@H](C)\C=C/C=C\C=C/C=C\C=C/C=C\C=C/[C@@H](O[C@H]2O[C@@H](C)[C@@H](O)[C@@H](N)[C@@H]2O)C[C@@H]2O[C@](O)(C[C@@H](O)C[C@@H](O)[C@@H](O)CC[C@@H](O)C[C@@H](O)CC(=O)O[C@H]1C)C[C@@H](O)[C@H]2C(=O)O (stereo in doubt)
  VDR inhibitor: -11.1%

Molecule: CCOc1ccccc1C(=O)NN1C(=O)C2CCCCC2C1=O (centres undefined)
  VDR inhibitor: -10.1%

Molecule: C/C(N)=C(\C#N)C(=O)NCCc1ccccn1
  VDR inhibitor: 5.1%

Next records follow.
SMILES	VDR inhibitor
Cc1cccc(COCC(CC(C)C)N2CCN(C(=O)c3ccc(C(F)(F)F)cc3)CCC2=O)c1 (centres undefined)	-16.2%
Cn1cc(SCC(=O)N2CCOCC2)c2ccccc21	-28.3%
COc1cc(C(=O)NNC(=S)NC(=O)c2ccc(Cl)cc2)cc(OC)c1OC	-7.4%
CN(C(=O)c1cccc(NC(=O)Cc2cccc(NC(=O)C3CCN(C(=O)C4CCCC4)CC3)c2)c1)C1CC1	-16.8%
CCC(C)(C)NC(=O)C(c1cccs1)N(C(=O)c1ccn[nH]1)c1cccc(OC)c1 (centres undefined)	-0.7%
COc1ccc(C)c2sc(N(CCCN(C)C)C(=O)CS(=O)(=O)c3ccc(F)cc3)nc12	20.9%
Cc1ccccc1-c1nc(NCc2cccs2)c2ccccc2n1	-18.4%
COc1ccc(-n2c(=O)c(CCC(=O)N3CCC(C)CC3)nc3ccccc32)cc1	-19.7%
COc1ccc(-c2nc3scc(CCNS(=O)(=O)c4cccc(C(C)=O)c4)n3n2)cc1	0.7%
Cc1ccc(NCC(=O)Nc2cccc(S(=O)(=O)N(C)C)c2)cc1S(=O)(=O)N1CCCCCC1	8.6%
C/C(=N\NC(=O)c1cccc(O)c1)c1cccc(NC(=O)c2ccc(F)cc2)c1	-9.6%
Cc1occc(=O)c1OCc1c(Cl)cccc1Cl	-3.0%
O=C(CN(C(=O)CNS(=O)(=O)c1ccccc1)c1ccc(Cl)cc1)NCC1CCCO1 (centres undefined)	9.4%
O=C(O)c1cc(-c2ccc(Br)s2)nc2ccccc12	-7.7%
Cc1ccc(S(=O)(=O)Nc2c(C)n(C)n(-c3ccccc3)c2=O)cc1	-3.0%&6.6%
COc1cc(NC(=O)c2cccs2)c(OC)cc1NC(=O)CCC(=O)Nc1ccc(C)cc1	19.4%
N#C/C(=C\c1cn(-c2ccccc2)nc1-c1cc2ccccc2o1)c1nc2ccccc2[nH]1	-12.0%
Cn1nnnc1SCc1ccccc1[N+](=O)[O-]	13.6%
CC(=O)N1CCC2(CCN(Cc3ccncc3)CC2)CC1	6.7%
CCOC(=O)CN(C(=O)Cn1nnc(-c2ccc(OC)cc2)n1)C(C(=O)NC1CCCC1)c1ccc(F)cc1 (centres undefined)	8.2%
COc1ccc(CC(=O)OCn2nnc3ccccc3c2=O)cc1	-11.7%
CC(C)CN(C(=O)COC(=O)c1ccccc1SCC(=O)N1CCCC1)C1CCS(=O)(=O)C1 (centres undefined)	-6.8%
COc1cccc(C(=O)CN2C3=NCCCN3c3ccccc32)c1	-5.8%
COc1ccc(-c2csc(CCN3N=C(C)CC3=O)n2)cc1	4.4%
Cc1ccc(NC(=O)c2ccc3c(=O)n4nc(Nc5ccccc5C)sc4nc3c2)cc1C	6.1%
(further entries)
SMILES	VDR inhibitor
Fc1cccc(-c2nnn3c2nc(NCc2ccc4c(c2)OCO4)c2ccccc23)c1	-8.2%
O=c1[nH]c(CSc2nc(-c3ccccc3)cs2)nc2ccccc12	1.2%
Cc1cccc(N2CCN(C(=O)c3ccc4c(c3)N(Cc3cccc(Cl)c3)C(=O)c3ccccc3S4=O)CC2C)c1 (centres undefined)	8.3%
CN(C)CC(=O)Nc1ccc(S(N)(=O)=O)cc1	?
COC(=O)C1(C)NC(c2ccccc2F)C2C(=O)N(c3ccccc3)C(=O)C21 (centres undefined)	-11.9%
Cc1noc(C)c1S(=O)(=O)NCCN1CCN(c2ccccc2)CC1	-3.4%
CC(C)(C)c1ccc(C(=O)NCC(=O)N2CCCCCC2)cc1	-0.8%
O=c1[nH]c(CSc2nnc(-c3ccccc3)n2C2CCCCC2)nc2ccccc12	10.3%
Cc1cccc(N=Nc2ccc(O)c3ncccc23)c1	-16.0%
CN(C)C(=O)CSc1nc2ccc(C(=O)c3ccccc3)cc2[nH]1	2.8%
COCC(=O)N(Cc1cc2cc(C)ccc2[nH]c1=O)c1ccccc1	?
Cc1onc(-c2c(F)cccc2Cl)c1C(=O)NC1=NCCS1	13.7%
COc1ccc(OC)c(Nc2nc(-c3sc(NC(=O)C(C)(C)C)nc3C)cs2)c1	-13.1%
Cc1csc(CN(C)C(=O)CC2C(=O)NCCN2CC(C)(C)C)n1 (centres undefined)	-8.2%
O=C(Nc1ccc(F)cc1)c1ncn(-c2ccccc2)n1	-17.5%
N=c1ccn(O)cc1CCc1ccccc1	14.0%
Cn1c(=S)oc2ccccc21	-6.5%
O=C(OCC(=O)N1CCCC1=O)c1nc(Cl)c(Cl)c(Cl)c1Cl	-8.2%
COc1cc(NC(=S)NNC(=O)CC(C)C)c(OC)cc1Cl	-23.0%
CN1CCN(CC(C)(C)NS(=O)(=O)c2ccccc2)CC1	-20.3%
COc1cc(/C=C/c2cccc[n+]2C)ccc1OCC(=O)Nc1cccc(Cl)c1	19.7%
CCc1ccc(OCC(=O)Nc2ccc(-c3nc4ncccc4o3)cc2)cc1	-13.4%

Assay outcomes (PubChem BioAssay)
